Source: PubChem (several laboratories)
YopH PTP inh: YopH tyrosine phosphatase inhibitors, primary screen, biochemical, fluorescence Ex485/Em525; YopH tyrosine phosphatase [Yersinia enterocolitica]; inhibition, %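 (about 10 µM by stock and volumes)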; 140,000 compounds, 0.16% hits;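 active = inhibition of 50% or more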;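 note: controls were vehicle for no effect and minimum signal wells for full effect; inactives centre near -20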
RecA splice inh: Mtb RecA intein splicing inhibitors, primary screen, biochemical, fluorescence, HTS. cell-free RecA intein splicing. inhibition, %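 (about 9 µM by stock and volumes)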. AID 2221, 2009. 290,000 compounds, 0.75% hits; in the data active = inhibition above about 30%; inconclusive = no clear call, values can overlap the other calls;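 note: 0% = vehicle wells and 100% = reference inhibitor control wells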
Target sequence (P9WHJ3 whole entry, looked up, canonical isoform): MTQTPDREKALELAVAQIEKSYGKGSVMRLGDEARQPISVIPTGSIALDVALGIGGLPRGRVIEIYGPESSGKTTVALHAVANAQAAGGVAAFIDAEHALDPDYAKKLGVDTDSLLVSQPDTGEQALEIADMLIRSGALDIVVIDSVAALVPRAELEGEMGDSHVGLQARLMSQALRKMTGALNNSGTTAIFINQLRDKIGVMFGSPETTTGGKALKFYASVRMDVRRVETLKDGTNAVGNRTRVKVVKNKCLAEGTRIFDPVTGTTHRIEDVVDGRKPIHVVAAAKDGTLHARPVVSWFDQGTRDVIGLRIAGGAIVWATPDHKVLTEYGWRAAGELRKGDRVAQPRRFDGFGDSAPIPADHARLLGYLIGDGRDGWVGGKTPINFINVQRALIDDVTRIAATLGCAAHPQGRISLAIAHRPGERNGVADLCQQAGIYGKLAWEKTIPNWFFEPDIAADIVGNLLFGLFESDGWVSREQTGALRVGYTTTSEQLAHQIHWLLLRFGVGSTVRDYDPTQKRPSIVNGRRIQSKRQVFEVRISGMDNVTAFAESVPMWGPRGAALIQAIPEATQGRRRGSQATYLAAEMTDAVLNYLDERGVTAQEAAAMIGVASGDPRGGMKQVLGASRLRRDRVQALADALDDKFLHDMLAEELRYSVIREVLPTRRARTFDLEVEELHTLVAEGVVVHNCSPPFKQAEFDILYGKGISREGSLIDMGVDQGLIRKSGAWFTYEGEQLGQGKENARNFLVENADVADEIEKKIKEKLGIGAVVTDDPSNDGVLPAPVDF
Mtb H37Rv: M. tuberculosis H37Rv growth inhibitors, H37Rv strain (AID 1626); 220,000 compounds, 0.95% hits; inhibition, % at 10 µM; hits with a dose series show IC50 in µM; M. tuberculosis H37Rv growth inhibition; higher % means a stronger effect;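 active = confirmed in a dose series; inconclusive = inhibition above 80% but not taken into the dose series; inactive = below 80% or under 30% at every dose of the series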;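 note: bacteria incubated seven days before Alamar blue readout; 0% = bacteria only wells and 100% = bacteria with antibiotic wells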
Mtb bLac sens: beta-lactam sensitization of Mtb H37Rv, H37Rv. inhibition, % at 25 µM. 330,000 compounds, 0.27% hits. M. tuberculosis H37Rv growth with meropenem, percent inhibition; hits of this screen are not shown here;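 active = about 74% or more and at least 40 points above the plate without the antibiotic, then above 30% in a dose series; inconclusive = first-round hits that could not be retested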;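 note: growth measured after seven days incubation then overnight dye step; 0% = bacteria only wells and 100% = bacteria with antibiotic; twin plates without the antibiotic show which effects depend on it; some results filed as inactive read as strong as hits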
Arbovirus inh: antivirals against arbovirus infection, primary screen, cell-based, full library, 10K replicate subset. arbovirus infection cell-based antiviral screen. inhibition, % at 10 µM. 200,000 compounds, 0.37% hits. AID 1251, 2008;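 active = inhibition from about 30%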;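 note: bluetongue infection of BSR cells; cell survival read as ATP light after 72 h; 0% = infected wells without compound and 100% = uninfected wells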
Arbovirus inh repeat: also measured in Arbovirus inh; calls as there; inhibition, %; measured here: 10K subset replicate screen; many hits read low in the repeat;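 first of two repeat runs on a subset; 0% = infected and 100% = uninfected wells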
* hit, by the source's call. Only part of the results is shown; the hit share may differ from the screen's.

How did COC(=O)Cn1c(=NC(=O)C2COc3ccccc3O2)sc2cc(S(N)(=O)=O)ccc21 (stereo not given) do in these assays?
YopH PTP inh: -19.9; RecA splice inh: -0.4; Mtb H37Rv: 4.3%; Mtb bLac sens: 3.2; Arbovirus inh: 0.8

What do the screens show for `CN(CC(=O)Nc1ccc2c(c1)OCO2)S(=O)(=O)c1ccc(F)cc1`?
RecA splice inh: -0.3; Mtb bLac sens: 1.9

What do the screens show for `O=C(O)c1ccc(NC(=O)c2ccc3c(c2)C(=O)N(CC2CCCO2)C3=O)cc1` (stereo not given)?
RecA splice inh: 2.1; Mtb bLac sens: -0.5

Results for COc1ccccc1NS(=O)(=O)c1ccc2oc(N)nc2c1 ?
RecA splice inh: -1.9; Mtb bLac sens: -7.0

What do the screens show for `CC(=O)Nc1ccc(N2CCN(C(=O)c3cccs3)CC2)cc1`?
YopH PTP inh: 0.1; RecA splice inh: 1.2; Mtb H37Rv: -5.7%; Mtb bLac sens: inconclusive; Arbovirus inh: -2.9

How did CCCOc1ccc(C(O)CCNC(CC(=O)O)c2ccccc2)cc1 (stereo not given) do in these assays?
YopH PTP inh: -35.2; RecA splice inh: 4.3; Mtb H37Rv: 3.1%; Mtb bLac sens: -0.5; Arbovirus inh: 1.4

How did C/C(=N\NC(=O)c1c(Cl)c(C)nn1C)c1cccc(NC(=O)COc2ccccc2)c1 do in these assays?
YopH PTP inh: -13.0; RecA splice inh: -1.0; Mtb H37Rv: 1.7%; Mtb bLac sens: -6.4; Arbovirus inh: -5.2

How did CCN(CC(=O)Nc1ccc2c(c1)OCCO2)Cc1cc(=O)oc2c(C)c(C)ccc12 do in these assays?
YopH PTP inh: -33.1; RecA splice inh: 3.4; Mtb H37Rv: -8.0%; Mtb bLac sens: -12.7; Arbovirus inh: 1.4

How did COC(=O)c1cccc(NC(=O)CCc2cc(OC)c(OC)c(OC)c2)c1 do in these assays?
YopH PTP inh: -26.8; RecA splice inh: -2.9; Mtb H37Rv: -5.3%; Mtb bLac sens: 6.4; Arbovirus inh: 6.6

How did Cc1[nH]n(-c2ccccc2)c(=O)c1C=NCc1ccncc1 do in these assays?
RecA splice inh: 6.5; Mtb H37Rv: -6.4%; Mtb bLac sens: -10.6

Quoted at random: four records from the list, in no set order.
Results for COc1ccccc1NS(=O)(=O)c1ccc2oc(N)nc2c1 ?
RecA splice inh: -1.9; Mtb bLac sens: -7.0

What do the screens show for `O=C(O)c1ccc(NC(=O)c2ccc3c(c2)C(=O)N(CC2CCCO2)C3=O)cc1` (stereo not given)?
RecA splice inh: 2.1; Mtb bLac sens: -0.5

How did Cc1[nH]n(-c2ccccc2)c(=O)c1C=NCc1ccncc1 do in these assays?
RecA splice inh: 6.5; Mtb H37Rv: -6.4%; Mtb bLac sens: -10.6

What do the screens show for `CN(CC(=O)Nc1ccc2c(c1)OCO2)S(=O)(=O)c1ccc(F)cc1`?
RecA splice inh: -0.3; Mtb bLac sens: 1.9

(more compounds)
Results for CCOC(=O)c1nc(Nc2ccccc2)c2ccccc2n1 ?
YopH PTP inh: -20.5; RecA splice inh: -0.3; Mtb H37Rv: 0.7%; Mtb bLac sens: -13.4; Arbovirus inh: 3.7

How did CCOC(=O)c1ccc(NC(=O)C(=O)NCC2(c3ccc(OC)cc3)CCOCC2)cc1 do in these assays?
RecA splice inh: -4.4; Mtb H37Rv: 33.5%; Mtb bLac sens: 9.1

Results for CC(C)c1ccccc1NC(=O)Cn1c(-c2ccccc2Cl)nc2ccccc21 ?
YopH PTP inh: -30.0; RecA splice inh: 6.9; Mtb H37Rv: -3.3%; Mtb bLac sens: -6.1; Arbovirus inh: 5.0

What do the screens show for `CN(C)c1ccc(NC(=O)CCCc2ccccc2)cc1`?
YopH PTP inh: -19.8; Mtb H37Rv: -10.7%; Mtb bLac sens: -2.2; Arbovirus inh: -8.1

How did CC(C)C[C@H](NC(=O)c1nc[nH]c1C(=O)N(C)Cc1ccccc1)C(=O)OCc1ccccc1 do in these assays?
RecA splice inh: -2.5; Mtb H37Rv: -4.7%; Mtb bLac sens: 7.0; Arbovirus inh: 0.7

How did Cc1ccc2nsnc2c1S(=O)(=O)N(Cc1ccco1)Cc1cc2cccc(C)c2[nH]c1=O do in these assays?
YopH PTP inh: -41.4; RecA splice inh: -2.3; Mtb H37Rv: -4.8%; Mtb bLac sens: -0.1; Arbovirus inh: 11.9

What do the screens show for `CN(CC(=O)O/N=C(\N)c1ccccn1)S(=O)(=O)c1ccc(Br)cc1`?
YopH PTP inh: -27.4; RecA splice inh: -1.8; Mtb H37Rv: -7.7%; Mtb bLac sens: 2.5; Arbovirus inh: -0.1

How did CCN(CC(=O)NCc1ccc(Cl)cc1)C(=O)CCC(=O)c1ccc(F)cc1 do in these assays?
RecA splice inh: -1.4; Mtb bLac sens: -2.7

How did COc1ccc(NS(=O)(=O)c2ccc3c(c2)N(C(C)=O)CC(C)S3)c(OC)c1 (stereo not given) do in these assays?
RecA splice inh: -0.3; Mtb bLac sens: -1.7

Results for COc1cccc(NC(=O)c2cc3c(=O)n4ccccc4nc3n(CC(C)C)c2=N)c1 ?
RecA splice inh: 0.2; Mtb H37Rv: 8.7%; Mtb bLac sens: 4.8; Arbovirus inh: -2.8

How did Clc1cccc(-c2ccc(CNCc3ccccn3)o2)c1 do in these assays?
RecA splice inh: 8.9; Mtb bLac sens: 95.7

What do the screens show for `CCOC(=O)C1(Cc2ccccc2)CCCN(CCCn2cccn2)C1` (stereo not given)?
RecA splice inh: 0.8; Mtb H37Rv: 3.5%; Mtb bLac sens: 2.2; Arbovirus inh: -1.7

Results for COc1ccc(CCN2C(=O)CC(N3CCC(C(N)=O)CC3)C2=O)cc1OC (stereo not given) ?
RecA splice inh: 1.2; Mtb H37Rv: 0.0%; Mtb bLac sens: -9.9

Results for CS(=O)(=O)N(CC(=O)Nc1ccc2c(c1)OCO2)c1ccc(Cl)cc1 ?
YopH PTP inh: -44.4; RecA splice inh: 1.2; Mtb H37Rv: -7.9%; Mtb bLac sens: 7.4; Arbovirus inh: -2.6

How did CC(C)C(NS(=O)(=O)c1ccc2c(c1)C(C)(C)C(=O)N2C)C(=O)NCc1ccccc1Cl (stereo not given) do in these assays?
RecA splice inh: -3.0; Mtb bLac sens: 0.2

How did Cc1sc2ncnc(N3CCN(c4ncccn4)CC3)c2c1C do in these assays?
YopH PTP inh: -43.0; RecA splice inh: -1.1; Mtb H37Rv: 9.1%; Mtb bLac sens: 46.3; Arbovirus inh: -0.2

Results for Cc1cc(C)nc(CCNC(=O)CC2C(=O)NCCN2Cc2ccc(F)cc2Cl)n1 (stereo not given) ?
RecA splice inh: 0.4; Mtb bLac sens: inconclusive

What do the screens show for `CC1=NCCN1S(=O)(=O)c1cccc([N+](=O)[O-])c1`?
RecA splice inh: -0.8; Mtb H37Rv: -3.7%; Mtb bLac sens: 8.1; Arbovirus inh: -3.7

Results for Cc1c(CC(=O)NCC(=O)NCC(=O)O)c(=O)oc2cc3oc4c(c3cc12)CCCC4 ?
RecA splice inh: -6.4; Mtb bLac sens: -2.1

How did O=C(Nc1ccc2c(c1)OCCO2)c1cnc2n(c1=O)CCS2 do in these assays?
YopH PTP inh: -18.8; RecA splice inh: -5.1; Mtb H37Rv: -9.7%; Mtb bLac sens: -11.8; Arbovirus inh: 6.5; Arbovirus inh repeat: 3.8

Results for Cc1ccc(C(=O)CSc2nnc(-c3ccco3)n2Cc2ccccc2)cc1 ?
YopH PTP inh: 19.0; RecA splice inh: 0.6; Mtb H37Rv: 13.2%; Mtb bLac sens: 6.1; Arbovirus inh: 5.7

Results for Cc1cc(=O)oc2cc(OCC(=O)Nc3ccccc3C(N)=O)c(Cl)cc12 ?
RecA splice inh: -1.1; Mtb bLac sens: -7.1

What do the screens show for `CC1(C)CC(=O)C2=C(C1)N1CCCCC1CC2=O` (stereo not given)?
YopH PTP inh: 1.7; RecA splice inh: -2.3; Mtb H37Rv: -5.1%; Mtb bLac sens: -7.1; Arbovirus inh: -3.9

Results for CN(CCO)C(=O)C(c1ccccc1)c1ccccc1 ?
RecA splice inh: 0.1; Mtb H37Rv: -9.4%; Mtb bLac sens: 3.4

How did O=C(O)C1CCCCN1S(=O)(=O)c1ccc(Cl)s1 (stereo not given) do in these assays?
YopH PTP inh: 6.6; Mtb H37Rv: -4.4%; Mtb bLac sens: -2.0; Arbovirus inh: 2.1; Arbovirus inh repeat: 1.8

How did Cc1ccc(OCC(=O)NNC(=S)NCc2ccccc2)cc1 do in these assays?
RecA splice inh: 3.1; Mtb H37Rv: -0.2%; Mtb bLac sens: -0.8; Arbovirus inh: 6.7

What do the screens show for `Cc1ccc(C)c(N(CC(=O)Nc2ccccc2C(=O)NCc2ccco2)S(=O)(=O)c2ccccc2)c1`?
YopH PTP inh: -16.2; RecA splice inh: 10.3; Mtb H37Rv: 3.9%; Mtb bLac sens: 3.3; Arbovirus inh: 6.9

What do the screens show for `COC(=O)c1nnn(CC(=O)Nc2ccc(C)c(F)c2)c1C(=O)OC`?
YopH PTP inh: 4.4; Mtb H37Rv: -6.1%; Mtb bLac sens: 4.9; Arbovirus inh: 1.2

Results for O=C(NC1CCS(=O)(=O)C1)C1CCCN(S(=O)(=O)c2ccc(Cl)cc2)C1 (stereo not given) ?
YopH PTP inh: -21.6; RecA splice inh: 2.6; Mtb H37Rv: -3.8%; Mtb bLac sens: -0.3; Arbovirus inh: -1.2

How did COc1cc(-c2c(C#N)c(=O)[nH]c3c2c(C)nn3-c2ccccc2)ccc1O do in these assays?
YopH PTP inh: -43.8; RecA splice inh: 0.5; Mtb H37Rv: 1.2%; Mtb bLac sens: 80.1; Arbovirus inh: 9.0

How did CC(C)(C)c1ccc(OCCNC(=S)NC(=O)c2cccnc2)cc1 do in these assays?
YopH PTP inh: -28.9; RecA splice inh: -1.3; Mtb H37Rv: 12.9%; Mtb bLac sens: 9.5; Arbovirus inh: -1.0

What do the screens show for `C=CCN(c1ccc(C(=O)N2CCN(c3ccc(F)cc3)CC2)cc1)S(C)(=O)=O`?
YopH PTP inh: -9.1; RecA splice inh: 1.5; Mtb H37Rv: -7.9%; Mtb bLac sens: 7.4; Arbovirus inh: 11.2

Results for Cc1nc(N2CCCCC2)sc1C(=O)c1ccc(Cl)c([N+](=O)[O-])c1 ?
RecA splice inh: 15.5; Mtb H37Rv: 5.6%; Mtb bLac sens: 6.8; Arbovirus inh: 2.4

How did CCCCNC(=O)CN1C(=O)COc2ccc(S(=O)(=O)N3CCCCCC3)cc21 do in these assays?
RecA splice inh: 2.3; Mtb bLac sens: 0.8

What do the screens show for `COc1ccc(Cn2nnnc2CN2CCc3ccccc32)cc1`?
YopH PTP inh: -26.7; RecA splice inh: 2.0; Mtb H37Rv: 1.0%; Mtb bLac sens: 9.4; Arbovirus inh: 2.1

How did Cc1cccc(NS(=O)(=O)c2ccc(C(=O)NCC(c3ccccc3)N(C)C)cc2)c1C (stereo not given) do in these assays?
RecA splice inh: 4.5; Mtb bLac sens: -2.2

What do the screens show for `COc1ccc(C2NC(=O)c3n[nH]c(C)c32)c(OC)c1` (stereo not given)?
YopH PTP inh: -22.5; RecA splice inh: 1.9; Mtb H37Rv: 3.3%; Mtb bLac sens: -5.4; Arbovirus inh: 17.9; Arbovirus inh repeat: -1.2

How did CN(Cc1ccsc1)C(=O)Cn1cc(Br)ccc1=O do in these assays?
RecA splice inh: 2.5; Mtb bLac sens: 4.8

What do the screens show for `Cc1cccc(-c2noc(CCC(=O)NCCc3ccccc3)n2)c1`?
RecA splice inh: -1.3; Mtb bLac sens: 4.7

How did COc1cccc(C(=O)C2CCCN(Cc3cn(C)nc3-c3ccccc3)C2)c1 (stereo not given) do in these assays?
RecA splice inh: -1.1; Mtb H37Rv: -6.9%; Mtb bLac sens: -3.5; Arbovirus inh: -6.3

How did CC1CCC2(CC1)NC(=O)N(CC(=O)c1cccn1C)C2=O (stereo not given) do in these assays?
YopH PTP inh: -67.5; RecA splice inh: 2.2; Mtb H37Rv: -3.5%; Mtb bLac sens: -5.5; Arbovirus inh: 9.1

How did CC(C)(C)C(=O)NC(=S)Nc1ccccc1C(=O)Nc1ccccc1 do in these assays?
YopH PTP inh: -3.9; RecA splice inh: 0.2; Mtb H37Rv: -13.6%; Mtb bLac sens: 4.2; Arbovirus inh: 3.4

Results for Cc1cccc(C)c1N1CCN(CCn2c(=S)[nH]c3ccccc3c2=O)CC1 ?
RecA splice inh: -1.9; Mtb bLac sens: 8.7
